miR-21 FLuc: qHTS Assay for Modulators of miRNAs and/orActivators of miR-21; HeLa miR-21 FLuc reporter, luciferase, 48 h; Potency, µM (top dose mostly 38.3 µM), without a hit: top-dose reporter change, positive = more light; 340,000 tested, under 10 active; AID 2288, 2010; active = well fitted rising curve with a large enough effect; inconclusive = small, poorly fitted or top-dose-only effect; inactive = no such curve, though single readings can be large or run the other way;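 further: % of control where 0% means no effect; miR-21 action dims this reporter so a rising signal means less miR-21 action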
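HeLa miR-21-FLuc reporter line, endogenous miR-21; 2000 cells/well in DMEM/10% FBS; compound titration up to ~40uM final, 48 h, 37 degree Celsius; luciferase detection reagent, 15 min lysis, CCD luminescence.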
An asterisk follows results filed as active; ? = inconclusive. A portion of the library, so the mix of outcomes need not match the whole.

SMILES	miR-21 FLuc
Cc1ccc(C)c(NC(=O)N2CCC(N3CCN(Cc4ccc(F)cc4)C(=O)C3=O)CC2)c1	1.0%
CCCCOc1ccc(CNC(=O)CCCN2C(=O)CSc3c2c(C)nn3-c2ccccc2)cc1	20.0%
CC(C)OCCCn1c(SCC(N)=O)nc2c(sc3ccccc32)c1=O	4.6%
Cc1ccc(C)c(NS(=O)(=O)c2ccc3c(c2)CCCN3C(=O)C2CCC2)c1	9.7%
CCOc1ccc(-n2c(C)nc3c(cnn3-c3ccc(C)cc3)c2=O)cc1	-2.3%
O=C(CSc1nc2c([nH]c3ccccc32)c(=O)n1-c1ccccc1)Nc1ccc2c(c1)OCO2	-4.5%
CCOc1ccc(-c2nc3c(C#N)c[nH]n3c2NC2CCCCC2)cc1	5.3%
CCn1c(C(=O)N2CCC(C(=O)N3CCN(c4cc(C)ccc4C)CC3)CC2)cc2sccc21	19.8%
Cc1cccc(CNC(=O)Cc2csc3ccccc23)c1	4.1%
COc1ccc(-c2cc(-c3ccccc3)c(C#N)c(SCC(O)CS(=O)(=O)Cc3ccccc3)n2)cc1 (stereo not drawn)	-0.6%
COc1cc(OC)c(NC(=O)NC(C)c2c(-n3cccc3)sc(C)c2C)cc1Cl (stereo not drawn)	10.2%
CC1CCC(NC(=O)c2ccc(CS(=O)(=O)c3ccc(Cl)cc3)o2)CC1 (stereo not drawn)	10.5%
Cc1cc(C)cc(NC(=O)N2CCC3(CC2)Oc2ccccc2C(=O)N3Cc2ccccc2F)c1	5.9%
O=c1cc(COc2ccc(Cl)cc2Cl)nc2scc(-c3ccccc3)n12	-7.8%
Cc1ccc2nc(-c3ccc(NC(=O)C(F)(F)F)cc3)sc2c1	-7.0%
O=C(CCn1c(=O)c2cccn2c2ccc(F)cc21)NCCc1ccccc1Cl	-0.4%
Cc1cccc(OCC(=O)Nc2cccc(C(=O)OCc3cc(=O)n4c(C)csc4n3)c2)c1	-17.7%
Cc1ccc(-c2nn3c(=O)cc(CN4CCN(S(=O)(=O)c5ccc(Cl)cc5)CC4)nc3s2)cc1	1.8%
COc1ccc(-c2cc(C(F)(F)F)n3ncc(-c4ccccc4)c3n2)cc1	-4.7%
COc1ccc(Cl)cc1NC(=O)c1cc2nc(-c3ccc4c(c3)OCO4)cc(C(F)(F)F)n2n1	-1.4%
COc1ccc(CCNC(=O)c2c(O)nc3ccccn3c2=O)cc1OC	3.6%
O=C(Nc1ccc(Cl)cc1)c1ccc(-n2cnnc2)cc1	-12.9%
COc1cc(OC)cc(C(=O)Nc2ccc3nc(N4CCC(C)CC4)cc(C)c3c2)c1	11.4%
COCCCNC(=O)c1c(NC(=O)Cc2coc3cc(C)cc(C)c23)sc2c1CCCC2	-0.8%
CCc1cccc(NC(=O)Cn2c(C(=O)OC)cc3occc32)c1	-0.1%
Nc1c(-c2nc(-c3ccccc3)no2)nnn1CC(=O)Nc1ccccc1	3.7%
COc1ccc(NC(=O)Cn2cc(C(=O)c3ccccc3OC)c(=O)c3ccc(C)nc32)cc1OC	4.5%
COc1ccc(OC)c(NC(=O)c2nc(SCc3ccc(F)cc3)ncc2Cl)c1	6.6%
COc1ccc2c(c1)cc(CNc1ccc(OC)c(OC)c1)c(=O)n2CC(=O)Nc1ccc(F)cc1	-0.5%
COc1ccc(NC(=O)c2cc(=O)c3ccc(C)c(C)c3o2)cc1Cl	-17.2%
Cc1ccc(Cl)cc1N1CCN(C(=O)c2ccc3c(Cl)c4c(nc3c2)CCCC4)CC1	3.8%
O=c1cc(-c2ccc(F)cc2)nc(SCc2nc(-c3ccc(Cl)cc3)no2)[nH]1	0.4%
O=C(Cn1c(=O)n(Cc2nc(-c3ccccc3)no2)c(=O)c2ccccc21)Nc1cccc(C(F)(F)F)c1	?
O=C(CSc1ncc(-c2ccccc2)[nH]1)Nc1ccc(Cl)cc1	-20.0%
CCOc1cccc(C(=O)N(Cc2ccc(C(C)C)cc2)C2CCS(=O)(=O)C2)c1 (stereo not drawn)	-4.5%
COc1cc(OC)c(NC(=O)C2CCN(S(=O)(=O)c3c(C)noc3/C=C/c3c(C)cc(C)cc3C)CC2)cc1Cl	-3.7%
CC(C)COc1ccc(C(=O)N2CCCCC2CCN2CCOCC2)cc1 (stereo not drawn)	-1.5%
COc1cc2c(cc1NC(=O)COc1cc(C)cc(C)c1)oc1ccccc12	-1.8%
O=C1C(=O)N(c2nccs2)C(c2ccccc2)/C1=C(\O)c1ccc2c(c1)OCCO2 (stereo not drawn)	28.2%
Cc1ccc(N2CC(NC(=O)c3ccc(Br)o3)CC2=O)cc1C (stereo not drawn)	-2.1%
COc1ccc(-c2cn3c(n2)sc2cc(C(=O)Nc4cccc(OC)c4)ccc23)cc1	-7.5%
O=C(COc1ccccc1-c1nc(-c2ccccc2)no1)Nc1cccc([N+](=O)[O-])c1	14.8%
CCn1c(=O)c(=O)n(CC)c2cc(N3CCCCC3)c(NC(=O)c3cccc(OC)c3)cc21	0.1%
CCN1Cc2cccc(C(=O)Nc3ccc(F)cc3)c2C1=O	-0.2%
O=S(=O)(NCCc1csc2nc(-c3ccccc3)nn12)c1cccs1	14.4%
CCc1ccccc1NC(=O)CN(C)S(=O)(=O)c1cccc2nsnc12	-8.3%
COc1ccc(-c2nc3cc(NC(=O)c4cc5ccccc5o4)ccc3o2)cc1	-21.3%
CC(C)(C)c1ccc(C(=O)NCC(=O)OCc2cc(=O)n3nc(C4CC4)sc3n2)cc1	-2.3%
Cc1cccc(C(=O)N2CCc3cc(CNC(=O)CSc4ccccc4)ccc32)c1	?
COc1ccc(Cl)cc1NC(=O)c1sc2nc(-c3ccc(OC)c(OC)c3)ccc2c1N	-1.9%
COc1ccc(-n2c(SCC(N)=O)nc3c(oc4ccccc43)c2=O)cc1	-12.1%
CC(=O)c1ccc(NC(=O)COc2ccccc2-c2nc(C)no2)cc1	23.1%
CCOCc1cc(CN2CCN(c3cccc(Cl)c3)CC2)c(O)c2ncccc12	-0.4%
COc1ccc(CNC(=O)C(CC(C)C)NS(=O)(=O)c2ccc3c(c2)CCN3C(C)=O)cc1 (stereo not drawn)	-1.7%
CCOc1ccc(-c2cc(C(=O)N3CCN(c4cc(Cl)ccc4C)CC3)c3ccccc3n2)cc1	-1.5%
O=C(Nc1cccc(C(=O)N2CCN(c3ccc(F)cc3)CC2)c1)c1nsc2ccccc12	-7.7%
CCOC(=O)c1cc(NC(=O)c2ccc(C)cc2)c(=O)n2c1oc1ccc(Cl)cc12	-6.8%
CC(=O)Nc1ccc(NC(=O)c2ccc(COc3ccc(Cl)cc3Cl)o2)cc1	-14.3%
COc1ccccc1NC(=O)C1CCN(c2cnccn2)CC1	2.4%
O=C1c2oc3ccccc3c(=O)c2C(c2ccc(O)cc2)N1Cc1ccc2c(c1)OCO2 (stereo not drawn)	-7.3%

Taken from the listing (2 entries):
SMILES	miR-21 FLuc
COc1ccccc1NC(=O)C1CCN(c2cnccn2)CC1	2.4%
O=C1c2oc3ccccc3c(=O)c2C(c2ccc(O)cc2)N1Cc1ccc2c(c1)OCO2 (stereo not drawn)	-7.3%

Next part
SMILES	miR-21 FLuc
Cc1ccc(N2CC(c3nnc(Cc4ccccc4Cl)o3)CC2=O)cc1 (stereo not drawn)	-2.8%
CCOc1ccccc1NC(=O)C1CCCN(c2ncnc3onc(-c4ccc(F)cc4)c23)C1 (stereo not drawn)	-9.4%
CCCN1Cc2cccc(C(=O)Nc3ccccc3F)c2C1=O	-1.2%
CCCCOc1ccc(Cn2c(=O)oc3ccc(C)cc32)cc1OC	-11.6%
COc1ccc(-c2nc(CSc3nncn4c3cc3occc34)c(C)o2)cc1	3.3%
COc1ccc(C(=O)c2cn(Cc3cccc(C)c3)c3cc4c(cc3c2=O)OCO4)cc1	4.0%
Cc1ccccc1NC(=O)N1CCc2c(sc3c2CCCC3)C1c1ccccc1 (stereo not drawn)	17.3%
Cc1ccc(CNC(=O)Cc2c(C)c3cc4c(C)coc4cc3oc2=O)cc1	7.8%
CC(=O)c1ccc(NC(=O)C2CCC(CNS(=O)(=O)c3cccs3)CC2)cc1 (stereo not drawn)	-4.1%
CCN(CC)CCNC(=O)c1c2c(nc3ccccc13)C(=O)N(C1CCCCC1)C2	-0.2%
O=S(=O)(NCCc1csc2nc(-c3ccc(Cl)cc3)nn12)c1ccc(Oc2ccccc2)cc1	-0.2%
Fc1ccc(-n2ncc3c(Nc4ccc(Oc5ccccc5)cc4)ncnc32)cc1	-22.0%
COC(=O)c1ccc(NC(=O)C2CCN(C(=O)c3ccc(F)cc3)CC2)cc1	-7.7%
Cc1ccc2cccc(NC(=O)c3ccc(OC(C)C)cc3)c2n1	-4.9%
Cc1cc(C)cc(OCC(=O)Nc2ccc(Cl)c(-c3nc4ncccc4o3)c2)c1	1.0%
Cc1cc(C)c(NC(=O)c2c(C)oc3c2C2=NCCN2C=N3)c(C)c1	0.1%
COc1ccc(OC)c(CCNC(=O)c2c(C)oc3ncn(C)c(=O)c23)c1	6.7%
COc1ccc(CCNC(=O)CCCCn2c(=O)c3ccccc3n(Cc3ccccc3Cl)c2=O)cc1OC	-3.2%
CCOC(=O)C1=C(CS(=O)(=O)c2ccc(Br)cc2)NC(=O)NC1c1ccccc1 (stereo not drawn)	9.3%
Cc1ccc(C)c(N2CCN(C(=O)c3cnn(C(C)(C)C)c3C3CCN(C(=O)OC(C)(C)C)CC3)CC2)c1	25.2%
Cc1cccc(NC(=O)CSc2cc(C)c3ccccc3n2)c1	23.1%
COC(=O)c1c(NC(=O)c2ccccc2C(=O)O)sc2c1CCCC2	0.4%
CCc1ccc(NS(=O)(=O)c2ccc3[nH]cc(C(=O)NCCc4cccc(C)c4)c(=O)c3c2)cc1	-2.6%
Cc1ccc(CN(Cc2cccn2-c2nnc(N3CCCC3=O)s2)C(=O)Nc2cc(C)cc(C)c2)cc1	-4.1%
N#Cc1c(-n2ncnc2-c2ccccc2Cl)sc2c1CCCCC2	-28.6%
COc1cccc(N2CCN(c3ncnc4c3c(-c3ccccc3)cn4-c3ccc(C)cc3)CC2)c1	-0.6%
COc1cc(NC(=O)CCc2c(C)nn(-c3ccc4nncn4n3)c2C)cc(OC)c1OC	-11.6%
CCOC(=O)c1c(S(=O)(=O)NCC(=O)Nc2ccc(F)cc2C)c(C)n(C)c1C	-5.9%
CCOC(=O)c1ccc(NC(=O)c2nn(C)c3c2COc2ccccc2-3)cc1	-9.8%
COc1cc(NC(=O)CCCc2nnc3n(C)c(=O)c4sccc4n23)cc(OC)c1OC	-0.5%

A draw from above in order of number of heavy atoms, rising:
SMILES	miR-21 FLuc
Cc1cccc(NC(=O)CSc2cc(C)c3ccccc3n2)c1	23.1%
Cc1ccccc1NC(=O)N1CCc2c(sc3c2CCCC3)C1c1ccccc1 (stereo not drawn)	17.3%
COc1ccc(CNC(=O)C(CC(C)C)NS(=O)(=O)c2ccc3c(c2)CCN3C(C)=O)cc1 (stereo not drawn)	-1.7%
COc1cc(OC)c(NC(=O)C2CCN(S(=O)(=O)c3c(C)noc3/C=C/c3c(C)cc(C)cc3C)CC2)cc1Cl	-3.7%

The list goes on:
SMILES	miR-21 FLuc
Oc1c(C(c2ccc(Cl)cc2)N2CCOCC2)sc2nc(-c3ccco3)nn12 (stereo not drawn)	-6.9%
Cc1ccc(-n2nc(CO)c(C(=O)NC(C)CCCc3ccccc3)n2)cc1C (stereo not drawn)	2.9%
COCc1nn2cc(-c3ccc(C)cc3)nc2s1	24.4%
COc1ccc(Cn2c(C(=O)O)c(CNCCc3ccco3)c3ccc(OC)cc32)cc1	11.4%
CCC1CN(C(=O)Nc2cccc(OC)c2)c2ccccc2O1 (stereo not drawn)	?
Cc1ccc(-n2nc3c(=O)n(CC(=O)Nc4ccccc4F)nc(C)c3c2C)c(C)c1	12.0%
COc1cccc(CNC(=O)CCc2c(C)c3cc4c(C)c(C)oc4cc3oc2=O)c1	5.8%
COCCNC(=O)C1CCC(CNS(=O)(=O)c2ccc3c(c2)CC(C)N3C(C)=O)CC1 (stereo not drawn)	0.0%
Cc1cc(F)ccc1NC(=O)C1CCCN(S(=O)(=O)c2ccc3c(c2)CCCC(=O)N3)C1 (stereo not drawn)	2.8%
Cc1ccc(NC(=O)Cn2c(=O)oc3cc(S(=O)(=O)N4CCCCCC4)ccc32)cc1Cl	-8.1%
CC(=O)N1CCCc2ccc(NC(=O)c3ccc(OC(C)C)cc3)cc21	6.5%
Cc1ccc2nc(CN3CCN(C(=O)Nc4ccc(C)c(F)c4)CC3)oc2c1	-18.8%
Cc1ccccc1-c1noc(-c2cc(C(C)C)[nH]n2)n1	-51.1%
CC(=O)c1cccc(NC(=O)CN2C(=O)c3cccnc3Sc3ccccc32)c1	-30.3%
Cc1ccc(-c2nnc(Nc3ccc(OCC(N)=O)cc3)c3ccccc23)cc1S(=O)(=O)NCC1CCCO1 (stereo not drawn)	-3.6%
COc1ccc(-c2cc(C(=O)NCCc3ccccc3)c3c(-c4ccc(Cl)cc4)[nH]nc3n2)cc1	7.6%
Cc1nc(-c2ccc(S(=O)(=O)N3CCN(c4cccc(C(F)(F)F)c4)CC3)cc2)co1	6.5%
CCCCOc1cccc(C(=O)N(Cc2ccc(N(C)C)cc2)C2CCS(=O)(=O)C2)c1 (stereo not drawn)	-6.5%
Cc1nn(C(=O)c2ccc(Cl)cc2)c(C)c1Sc1ccc(Cl)cc1	20.7%
CCOC(=O)c1cnn(-c2ccc(C(=O)Nc3cc(OC)c(OC)c(OC)c3)cc2)c1N	20.5%
COc1ccc(Nc2ncnc3c2cnn3C)c(OC)c1	-12.6%
